Screening data as filed in PubChem BioAssay.
Cruzain noTriton – cruzain (T. cruzi) inhibition without detergent; purified cruzain, Z-FR-AMC fluorescence, no detergent; Potency, µM, for the others: max response, negative = inhibition, hits mostly inhibitors; 2.3% of 200,000 active;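 note: plate controls were enzyme without inhibitor for no effect and buffer without enzyme for full effect; nearly all actives have a fitted effect of over 40% in size; top concentration of the series not given in the record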
Target sequence (P25779 123-467 limits assumed): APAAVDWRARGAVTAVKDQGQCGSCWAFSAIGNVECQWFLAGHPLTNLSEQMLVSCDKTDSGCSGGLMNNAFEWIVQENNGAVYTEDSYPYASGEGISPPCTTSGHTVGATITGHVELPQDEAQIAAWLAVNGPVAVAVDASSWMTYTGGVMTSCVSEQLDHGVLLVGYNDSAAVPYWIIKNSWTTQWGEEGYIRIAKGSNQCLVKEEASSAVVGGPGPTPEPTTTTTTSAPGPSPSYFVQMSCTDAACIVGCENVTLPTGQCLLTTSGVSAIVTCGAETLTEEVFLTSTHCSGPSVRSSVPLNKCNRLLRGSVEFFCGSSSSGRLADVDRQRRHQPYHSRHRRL
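Purified cruzain at 1.5 nM, pre-incubated 15 min with compound at room temperature in 100 mM sodium acetate pH 5.5, 5 mM DTT, 0.00005% Triton X-100. Reaction started with 2 uM Z-FR-AMC; AMC fluorescence increase over 60 s gives rate.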
Cruzain Triton – inhibitors of Trypanosoma cruzi cruzain with detergent. P25779. 0.43% of 200,000 active. AID 1478. purified cruzain, Z-FR-AMC fluorescence, 0.01% Triton. Potency, µM, inactives show max response, negative = inhibition, hits mostly inhibitors;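 note: plate controls were neutral wells for no effect and buffer without enzyme for full effect; nearly all actives have a fitted effect of over 40% in size; top concentration of the series not given in the record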
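Steps: dispense cruzain (1.5 nM final) in acetate buffer pH 5.5 with DTT and 0.01% Triton X-100; pin-transfer compounds; incubate 15 min RT; add Z-FR-AMC (2 uM final); read fluorescence every 30 s, using the 60 s intensity change.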
Numbers without * were called inactive; ? = inconclusive; & = joins results of further samples. Calls come from the whole dose curve; as a rule, active = well fitted curve in the direction sought with a large enough effect; inconclusive = small, poorly fitted or top-dose-only effect, or another doubt; inactive = no such curve, though single readings can be large; an effect the other way counts as inactive or inconclusive. Potency is the fitted concentration of half-maximal effect.

Sample of the layout, 19 compounds:
SMILES	Cruzain noTriton	Cruzain Triton
Cc1c2oc3c(C)ccc(C(=O)N[C@@H]4C(=O)N[C@H](C(C)C)C(=O)N5CCC[C@H]5C(=O)N(C)CC(=O)N(C)[C@@H](C(C)C)C(=O)O[C@@H]4C)c3nc-2c(C(=O)N[C@@H]2C(=O)N[C@H](C(C)C)C(=O)N3CCC[C@H]3C(=O)N(C)CC(=O)N(C)[C@@H](C(C)C)C(=O)O[C@@H]2C)c(N)c1=O	?	0.2%&2.3%
Cc1cc(OI)c(C(C)C)cc1-c1cc(C(C)C)c(OI)cc1C	-27%	0.1%
C=CC1=C(C(=O)O)N2C(=O)[C@@H](NC(=O)/C(=N\OCC(=O)O)c3csc(N)n3)[C@@H]2SC1	-1%	-0.5%
NCCC(=O)N[C@@H](Cc1cnc[nH]1)C(=O)O	18%	2.5%
Cn1c(N)c(C(=O)COC(=O)c2cc(-c3ccccc3)nc3ccccc23)c(=O)n(C)c1=O	?	0.1%
OCC1OC(Oc2cccc3cccnc23)C(O)C(O)C1O (stereo not given)	4%	0.8%
O=C(O)C(Cl)(Cl)Br	-8%	1.0%
Nc1cccc(C(F)(F)F)c1	-1%	1.6%
CCCCCCCCCCCC(CC1OC(=O)C1CCCCCC)OC(=O)C(CC(C)C)NC=O (stereo not given)	-3%	-0.2%
COc1ccc2c(c1)O[C@@H](c1ccc3c(c1)OCO3)[C@H](OC(=O)N[C@H]1CCCc3ccccc31)C2=O	-9%	-1.5%
CCC1=C2CC[C@H]3C(=O)N(CC(=O)OC)C(=O)[C@H]3[C@H]2[C@@]2(C)C(=O)N(CC3CC3)C(=O)N2C1=O	-7%	2.5%
C1CCN2CC3CC(CN4CCCC[C@@H]34)C2C1 (stereo not given in full)	6%	-3.7%
CCCCNc1nc(C)nc2c1nc(-c1ccccc1)n2CCN1CCCC1	-4%	-2.1%
COc1cccc([C@@H]2Oc3ccc(OC)cc3C[C@H]2OC(=O)N[C@H](C)C2CCCCC2)c1	-6%	-2.1%
COC(=O)[C@H](Cc1ccccc1)NC(=O)[C@H]1C[C@@H]1[C@H](NC(=O)OCc1ccccc1)c1ccccc1	-15%	-1.5%
CC(C)CCOC(=O)/C=C/c1ccccc1	-5%	5.8%
CCCn1c(-c2ccc(F)cc2)nc2c(N3CCN(Cc4nc(OC)cc(OC)n4)CC3)nc(C)nc21	?	-6.3%
C[C@H](CCC(=O)O)C[C@H](C)C[C@H](C)C(=O)/C=C(\O)[C@H](C)C[C@H](C)C/C=C/[C@@H](C)[C@@H](O)[C@@H](C)[C@@H](O)C[C@@H]1CC[C@@](C)([C@H]2CC[C@@](C)([C@@H](C)O)O2)O1	?	-1.3%
CCCn1c(C)nc2c(NCCCN(CCO)CCO)nc(C)nc21	-12%	3.1%

Results, previewed entries included:
SMILES	Cruzain noTriton	Cruzain Triton
Cc1c2oc3c(C)ccc(C(=O)N[C@@H]4C(=O)N[C@H](C(C)C)C(=O)N5CCC[C@H]5C(=O)N(C)CC(=O)N(C)[C@@H](C(C)C)C(=O)O[C@@H]4C)c3nc-2c(C(=O)N[C@@H]2C(=O)N[C@H](C(C)C)C(=O)N3CCC[C@H]3C(=O)N(C)CC(=O)N(C)[C@@H](C(C)C)C(=O)O[C@@H]2C)c(N)c1=O	?	0.2%&2.3%
Cc1cc(OI)c(C(C)C)cc1-c1cc(C(C)C)c(OI)cc1C	-27%	0.1%
C=CC1=C(C(=O)O)N2C(=O)[C@@H](NC(=O)/C(=N\OCC(=O)O)c3csc(N)n3)[C@@H]2SC1	-1%	-0.5%
NCCC(=O)N[C@@H](Cc1cnc[nH]1)C(=O)O	18%	2.5%
Cn1c(N)c(C(=O)COC(=O)c2cc(-c3ccccc3)nc3ccccc23)c(=O)n(C)c1=O	?	0.1%
OCC1OC(Oc2cccc3cccnc23)C(O)C(O)C1O (stereo not given)	4%	0.8%
O=C(O)C(Cl)(Cl)Br	-8%	1.0%
Nc1cccc(C(F)(F)F)c1	-1%	1.6%
CCCCCCCCCCCC(CC1OC(=O)C1CCCCCC)OC(=O)C(CC(C)C)NC=O (stereo not given)	-3%	-0.2%
COc1ccc2c(c1)O[C@@H](c1ccc3c(c1)OCO3)[C@H](OC(=O)N[C@H]1CCCc3ccccc31)C2=O	-9%	-1.5%
CCC1=C2CC[C@H]3C(=O)N(CC(=O)OC)C(=O)[C@H]3[C@H]2[C@@]2(C)C(=O)N(CC3CC3)C(=O)N2C1=O	-7%	2.5%
C1CCN2CC3CC(CN4CCCC[C@@H]34)C2C1 (stereo not given in full)	6%	-3.7%
CCCCNc1nc(C)nc2c1nc(-c1ccccc1)n2CCN1CCCC1	-4%	-2.1%
COc1cccc([C@@H]2Oc3ccc(OC)cc3C[C@H]2OC(=O)N[C@H](C)C2CCCCC2)c1	-6%	-2.1%
COC(=O)[C@H](Cc1ccccc1)NC(=O)[C@H]1C[C@@H]1[C@H](NC(=O)OCc1ccccc1)c1ccccc1	-15%	-1.5%
CC(C)CCOC(=O)/C=C/c1ccccc1	-5%	5.8%
CCCn1c(-c2ccc(F)cc2)nc2c(N3CCN(Cc4nc(OC)cc(OC)n4)CC3)nc(C)nc21	?	-6.3%
C[C@H](CCC(=O)O)C[C@H](C)C[C@H](C)C(=O)/C=C(\O)[C@H](C)C[C@H](C)C/C=C/[C@@H](C)[C@@H](O)[C@@H](C)[C@@H](O)C[C@@H]1CC[C@@](C)([C@H]2CC[C@@](C)([C@@H](C)O)O2)O1	?	-1.3%
CCCn1c(C)nc2c(NCCCN(CCO)CCO)nc(C)nc21	-12%	3.1%
COC(=O)c1ccc(C(NC(=O)OCc2ccccc2)/C(=C/[C@@H](C)C(=O)NCc2nc3ccccc3s2)c2cccnc2)cc1 (stereo not given in full)	?	-5.0%
CCCCOCCOCCOCc1cc2c(cc1CCC)OCO2	18%	-1.4%
BrC(Br)Br	3%	1.7%
COC(=O)[C@@]1(Cc2ccc(OC)cc2)[C@H]2c3cc(C(=O)N(C)C)n(Cc4nc5ccccc5[nH]4)c3C[C@H]2CN1C(=O)c1ccccc1	?	0.0%
CC(=O)Nc1c2sscc-2n(C)c1=O	-6%	14%
CCCCC/C=C\C/C=C\C/C=C\C/C=C\CCCC(=O)NCCO	4%&-4%&3%	2.2%&3.8%&2.6%
CCOC(=O)CNC(=O)O[C@@H]1C(=O)c2cc(Br)ccc2O[C@H]1c1cccc(OC)c1	-5%	0.2%
CN1CCN(C(=O)c2nc3ccc(Cl)cc3[nH]2)CC1	-5%	-4.8%
O=c1[nH]c(=O)n([C@@H]2O[C@H](CO)[C@@H](O)[C@H]2O)cc1F	-6%	0.9%
CCCCC/C=C\C/C=C\C/C=C\C/C=C\CCCC(=O)NCc1ccoc1	?	-15%
C[C@@H]1C[C@@H]([C@@H](C)CC2CC(=O)NC(=O)C2)C(=O)[C@@H](C)C1	-3%	-1.5%
COc1cccc([C@@H]2Oc3ccc(Br)cc3C(=O)[C@H]2OC(=O)NCc2ccc3c(c2)OCO3)c1	-6%	-3.0%
CC(C)=CCC[C@](C)(O[C@@H]1O[C@H](CO)[C@@H](O)[C@H](O)[C@H]1O)[C@H]1CC[C@]2(C)[C@@H]1[C@H](O)C[C@@H]1[C@@]3(C)CC[C@H](O[C@@H]4O[C@H](CO)[C@@H](O)[C@H](O)[C@H]4O[C@@H]4O[C@H](CO)[C@@H](O)[C@H](O)[C@H]4O)C(C)(C)[C@@H]3[C@@H](O)C[C@]12C	?	1.8%
CCCCC(CC)COCCCN (stereo not given)	-3%	0.2%
CO[C@]12C[C@@H](COC(=O)c3cncc(Br)c3)CN(C)[C@@H]1Cc1cn(C)c3cccc2c13	7%	-0.3%
CC(=O)NNc1ccccc1	6%	6.9%
CC(C)=O	-4%	4.1%
COC(=O)CCCc1[se]c2ccccc2c1I	2%	-1.3%
FC(Cl)(Cl)Cl	-4%	6.1%
CC(C)[N+](=O)[O-]	-2%	0.9%
COc1cccc2oc(SC)cc(=O)c12	0%	-0.4%
COc1ccccc1CNC(=O)c1cccc(-c2ccccc2OC)n1	-8%	3.7%
CC(=O)OCC1=C(C(=O)O)N2C(=O)[C@@H](N)[C@@H]2SC1	2%	0.5%
Cc1ncc(CO)c(C=O)c1O	3%&-10%	-1.2%&0.6%
CNC(=O)[C@]1(C)C[C@H]1[C@H](NC(=O)[C@]1(C)C[C@H]1[C@H](NC(=O)OCc1ccccc1)c1ccccc1)c1ccccc1	-1%	-8.7%
O=C1CCC[C@@H]2CC(NCc3ccc(Cl)c(Cl)c3)C[C@@H]3CCN1[C@H]23 (stereo not given in full)	-1%	0.6%
CCN1C[C@]2(C)CC[C@H](O)[C@@]34[C@@H]5CC6[C@@H](OC)C[C@@](O)([C@@H]5[C@@H]6O)[C@H](C[C@@H]23)[C@H]14	9%	0.7%
COC(=O)c1ccc(C(NC(=O)OCc2ccccc2)/C(=C/[C@@H](C)C(=O)NCc2cc(F)cc(F)c2)c2cccnc2)cc1 (stereo not given in full)	22%	-3.2%
COC(=O)[C@@]1(C)C=C[C@@H](Cc2ccccc2)N1C	?	-3.1%
COc1ccc2c(=O)cc(-c3ccccc3)oc2c1O	1%	4.1%
CCCC[N+](=O)[O-]	1%	12%
CCOC(=O)C1Oc2ccccc2C(c2ccccc2)=C1C(C)=O (stereo not given)	0%	-2.9%
CCOP(=S)(OCC)SCSC(C)(C)C	-9%	0.8%
COC(=O)c1cccc(C23CC4(C2)[C@H](CN(CC2CCCCC2)[C@@H]4c2ccccc2)C3c2ccc(C(F)(F)F)cc2)c1 (stereo not given in full)	?	0.7%
COC(=O)[C@@]1(Cc2ccc(F)cc2)[C@@H]2[C@@H](CC(=O)[C@H]2CC(=O)C(=O)N2CCCC2)CN1C(=O)c1ccccc1	1%	-1.5%
C[C@@H](C(=O)O)c1ccc(C(=O)c2ccccc2)s1	-6%	0.1%
Cc1csc(B(O)O)c1	-3%	-0.6%
C=C(C)[C@]12C[C@@H](C)[C@@]34OC(Cc5ccccc5)(O[C@@H]1[C@@H]3C=C(COC(=O)Cc1cc(I)c(O)c(OC)c1)C[C@]1(O)C(=O)C(C)=C[C@@H]41)O2	-8%	2.9%
Cc1nc(NCc2ccccc2)c2nc(-c3ccccc3)n(CCCN(C)C)c2n1	-7%	-9.6%
CNC1=C(Br)C(=O)c2ccncc2C1=O	-10%	-5.7%
COCCNC(=O)C1(CC(C)C)C=CCN1C(=O)c1ccccc1 (stereo not given)	-2%	2.2%
(further entries)
SMILES	Cruzain noTriton	Cruzain Triton
CC(Nc1oc(-c2ccccc2)nc1-c1ccc(C(F)(F)F)cc1)c1ccccc1 (stereo not given)	4%	4.5%
CC(=O)CCOC1CCCCO1 (stereo not given)	1%	6.9%
CC(C)(C)NC[C@@H](O)COc1ccccc1C1CCCC1	-9%	-0.1%
CC1(C)S[C@@H]2[C@H](NC(=O)[C@@H](N)c3ccccc3)C(=O)N2[C@H]1C(=O)O[C@H]1OC(=O)c2ccccc21	-21%	1.8%
O=C(N/N=C\c1ccc([N+](=O)[O-])o1)c1ccc(O)cc1	-1%	-5.8%
Nc1nc(/C(=C/CC(=O)O)C(=O)NC2C(=O)N3C(C(=O)O)=CCSC23)cs1 (stereo not given)	-7%	0.9%
COCCNc1nc(C)nc2c1nc(-c1ccccc1)n2CCCN1CCCCC1C (stereo not given)	2%	-1.7%
CC(CN(C)C)C(C)(O)Cc1ccc(Cl)cc1 (stereo not given)	-3%	1.6%
CS(=O)(=O)c1ccc([C@H](O)[C@H](CF)NC(=O)C(Cl)Cl)cc1	-2%	-0.7%
C[C@@]1(C(NC(=O)c2ccc(-c3ccccc3)cc2)c2ccc(Cl)cc2)C[C@H]1C1CCCCC1 (stereo not given in full)	?	2.2%
COCCNC(=O)[C@H](C)/C=C(\c1cccnc1)C(NC(=O)OCc1ccccc1)c1ccc(C(=O)OC)cc1 (stereo not given in full)	?	2.2%
Cc1cccc(-c2ccc(-c3cc(=O)oc4cc(C)cc(C)c34)cc2)c1	?	3.2%
N[C@@H]1C(O)OC(CO)C(O)C1O (stereo not given in full)	25%	-0.1%
C[C@H]1CS(=O)(=O)CCN1/N=C\c1ccc([N+](=O)[O-])o1	-16%	-4.4%
COc1ccc(CC(N)C(=O)N[C@H]2[C@@H](O)[C@H](n3cnc4c(N(C)C)ncnc43)O[C@@H]2CO)cc1 (stereo not given in full)	-2%	-2.2%
COCC1=C2c3ccccc3[C@H](C[N+](=O)[O-])C(C(=O)OC)(C(=O)OC)C[C@@H]2n2c(=O)n(-c3ccccc3)c(=O)n2C1	-2%&-2%&9%	0.2%&-2.2%&-1.1%
CC(=O)OC1CCC2(C)C3CCC4(C)C(CC5CCCCC54C(C)=O)C3CC(=O)[C@@]2(O)C1 (stereo not given in full)	6%	1.0%
CC[C@]1(c2cccc(O)c2)CCCCN(C)C1	-5%	-3.5%
CC1(C)O[C@@H]2C[C@H]3[C@H]4C[C@H](F)C5=CC(=O)CC[C@]5(C)[C@@H]4[C@H](O)C[C@]3(C)[C@]2(C(=O)CO)O1	-1%	4.6%
COc1ccc(C[C@H](N)C(=O)N[C@@H]2[C@H](O)[C@H](n3cnc4c(N(C)C)ncnc43)O[C@@H]2CO)cc1	16%	-1.0%
COCC1=C2c3ccccc3[C@@H]3CNC(=O)C3(C(=O)OC)C[C@@H]2n2c(=O)n(-c3ccccc3)c(=O)n2C1 (stereo not given in full)	-1%&6%	-0.9%&0.2%
CCCCCCNC(=O)Nc1ccc(S(=O)(=O)Nc2ccc(CCNC[C@H](O)COc3ccc(O)cc3)cc2)cc1	-8%	2.4%
CC=O	4%	5.3%

Only part of the results is shown; rates above refer to the full screens.
